# Screens deposited in PubChem by National Center for Advancing Translational Sciences (NCATS).
# StopGo reporter – lowers the luciferase signal of an FMDV 2A StopGo reporter. human cells with a luciferase reporter of 2A StopGo recoding; control for the full effect not named in the record. Potency, µM (titrated, usually from 57.9 µM), for inactives: top-dose signal change, negative = less light. hit rate 1.2% among 410,000. AID 1159524; active = well fitted falling curve with a large enough effect; inconclusive = small, poorly fitted or top-dose-only effect; inactive = no such curve, though single readings can be large or run the other way; tested in HEK293T cells; note: % is set by controls: 0 for no effect and ±100 for the full control effect; nearly all actives have a fitted effect of over 45% in size; luciferase light after 4 h
# SARS PLP yeast – blocks SARS-CoV papain-like protease in a yeast assay; S. cerevisiae expressing SARS-CoV PLpro, growth rescue; control for the full effect not named in the record; Potency, µM (top dose mostly 32.9 µM), for inactives: at the top dose activity, positive = growth rescue; hit rate 0.19% among 330,000; active means well fitted rising curve with a large enough effect; inconclusive means small, poorly fitted or top-dose-only effect; inactive means no such curve, though single readings can be large or run the other way; note: 0% is about no effect; nearly all actives have a fitted effect of over 55% in size; growth read by luminescence after 48 h
# RE007 growth inh – less growth of the S. pombe RE007 Vpr strain; S. pombe RE007 Vpr strain, BacTiter-Glo ATP luminescence, 24 h; control for the full effect not named in the record; Potency, µM (titrated, usually from 92.2 µM), for the others: at the highest dose activity change, negative = less growth; hit rate 0.21% among 360,000; active = well fitted falling curve with a large enough effect; inconclusive = small, poorly fitted or top-dose-only effect; inactive = no such curve, though single readings can be large or run the other way;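 note: % is set by controls: 0 for no effect and ±100 for the full control effect; nearly all actives have a fitted effect of over 50% in size; the assay follows cell death caused by Vpr and the record does not say whether a fall means rescue or toxicity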
#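 Fission yeast strain RE007, carrying one chromosomally integrated HIV-1 vpr copy, was seeded at OD 0.01 in PMG+AL medium with 23 nL pinned compound. After 24 h at 30 °C and 99% humidity, viability was read by BacTiter-Glo luminescence.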
# Cruzain noTriton – blocks cruzain activity in detergent-free assay; P25779; purified cruzain, Z-FR-AMC fluorescence, no detergent; Potency, µM, without a hit: max response, negative = inhibition, hits mostly inhibitors; hit rate 2.3% among 200,000; AID 1476;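 note: plate controls were enzyme without inhibitor for no effect and buffer without enzyme for full effect; nearly all actives have a fitted effect of over 40% in size; top concentration of the series not given in the record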
# Target sequence (P25779 123-467 limits assumed): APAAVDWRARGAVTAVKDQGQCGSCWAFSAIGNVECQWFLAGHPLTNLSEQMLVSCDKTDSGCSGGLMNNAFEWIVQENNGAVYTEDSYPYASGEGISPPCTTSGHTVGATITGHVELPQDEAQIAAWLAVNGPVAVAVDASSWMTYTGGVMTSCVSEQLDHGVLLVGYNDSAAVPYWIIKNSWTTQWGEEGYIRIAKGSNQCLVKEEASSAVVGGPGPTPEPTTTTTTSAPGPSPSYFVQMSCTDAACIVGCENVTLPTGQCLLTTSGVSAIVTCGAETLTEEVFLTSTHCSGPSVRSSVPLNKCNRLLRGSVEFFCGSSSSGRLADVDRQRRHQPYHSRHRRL
#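 Purified cruzain at 1.5 nM, pre-incubated 15 min with compound at room temperature in 100 mM sodium acetate pH 5.5, 5 mM DTT, 0.00005% Triton X-100. Reaction started with 2 uM Z-FR-AMC; AMC fluorescence increase over 60 s gives rate.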
# LASV entry inh – inhibitors of Lassa virus binding or cell entry; Lassa virus pseudotype entry inhibition, cell reporter; control for the full effect not named in the record; hit rate 1.2% among 300,000; Potency, µM (highest dose often 37.9 µM), for the others: at the top dose activity change, negative = inhibition, most hits filed as inhibitors; active means well fitted inhibition curve with a large enough effect; inconclusive means small, poorly fitted or top-dose-only effect, or effect the other way; inactive means flat fitted curve, though single readings scatter; tested in HEK293 cells; note: % is set by controls: 0 for no effect and ±100 for the full control effect; nearly all actives have a fitted effect of over 50% in size; luciferase read-out
# Cruzain inh Det – cruzain (T. cruzi) inhibition with detergent. P25779. purified cruzain, Z-FR-AMC fluorescence, 0.01% Triton. Potency, µM, for the others: max response, negative = inhibition, most hits filed as inhibitors. hit rate 0.43% among 200,000;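 note: plate controls were neutral wells for no effect and buffer without enzyme for full effect; nearly all actives have a fitted effect of over 40% in size; top concentration of the series not given in the record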
#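 Read-out: AMC fluorescence (360 nm excitation, 450 nm emission), four reads over 2 min, first-to-third difference used. Conditions: cruzain 1.5 nM, Z-FR-AMC 2 uM, pH 5.5 acetate, 5 mM DTT, 0.01% Triton X-100.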
# Marburg entry inh – blocks Marburg virus binding to or entry into cells; Marburg virus pseudotyped entry inhibition, cell reporter; control for the full effect not named in the record; about a third of the inactives were read at about 46 µM; Potency, µM (doses to about 37.8 µM), for the others: top-dose activity change, negative = inhibition, usual class: inhibitors; hit rate 1.8% among 300,000; AID 540276; active = well fitted inhibition curve with a large enough effect; inconclusive = small, poorly fitted or top-dose-only effect, or effect the other way; inactive = flat fitted curve, though single readings scatter; tested in HEK293 cells; about a fifth of its hits are not listed in these tables; note: % is set by controls: 0 for no effect and ±100 for the full control effect; luciferase read-out
# NS1 function inh – influenza NS1 inhibition; hit rate 0.4% among 270,000; Potency, µM (top dose mostly 46.1 µM), inactives show at the highest dose activity, positive = more growth; S. cerevisiae slowed by influenza A NS1, growth recovery by OD600; active means well fitted rising curve with a large enough effect; inconclusive means small, poorly fitted or top-dose-only effect; inactive means no such curve, though single readings can be large or run the other way; note: nearly all actives have a fitted effect of over 50% in size
#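 A cell-based growth assay was used: compounds that relieve NS1-induced slow growth of budding yeast raise OD600. Assay medium was yeast nitrogen base with ammonium sulphate and -URA supplement, pH 6.0, with 2% galactose.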
# An asterisk follows results filed as active; ? = inconclusive; . = no result given; [ ] = dose if it differs, or a comment. Unless noted, calls come from the whole dose curve; as a rule, active = well fitted curve in the direction sought with a large enough effect; inconclusive = small, poorly fitted or top-dose-only effect, or another doubt; inactive = no such curve, though single readings can be large; an effect the other way counts as inactive or inconclusive. Potency is the fitted concentration of half-maximal effect.
mol | StopGo reporter | SARS PLP yeast | RE007 growth inh | Cruzain noTriton | LASV entry inh | Cruzain inh Det | Marburg entry inh | NS1 function inh
CN(C1CCCCC1)S(=O)(=O)c1ccc(NC(=O)CCC(=O)O)cc1 | -2% | -17% | -9% | -8% | 2% | -2.0% | -21% | 20%
Cc1nn2c(NCc3ccccn3)c3c(nc2c1-c1ccccc1)CCC3 | ? | -4% | -19% | . | ? | . | ? | -122%
Cc1ccc(CSc2nnc(-c3cccnc3)n2N)cc1 | -13% | 2% | 3% | -7% | 30% | 0.6% | 20% | -9%
CCCCN(C)c1nnc(NC(=O)Nc2cccc(C(C)=O)c2)s1 | -20% | . | . | -10% | 13%[46.1 µM] | -8.7% | -15%[46.1 µM] | .
CCOC(=O)C1CCCN(C(=O)CN2C(=O)C(CC)Oc3ccc(C)cc32)C1 (stereo not drawn) | . | -2% | 4% | 10% | -3% | 4.0% | -1% | -3%
O=C(CN1C(=O)NC2(CCCCCCC2)C1=O)N1CCOCC1 | -6% | 3% | 4% | -1% | 8% | 3.6% | ? | -6%
CC(=O)OC1COC(n2ccc3ccccc32)C(OC(C)=O)C1OC(C)=O (stereo not drawn) | -21% | -3% | 2% | 16% | -13% | 4.5% | ? | 0%
COc1ccc(NS(=O)(=O)c2ccc(NC(=O)C(C)(C(F)(F)F)C(F)(F)F)cc2)nn1 | 9% | -2% | 1% | -11% | ? | -4.7% | -13% | ?
COc1cc(OC)cc(C(=O)Nc2ccc(S(=O)(=O)Nc3ccccn3)cc2)c1 | 24% | 0% | -11% | . | ? | . | 7%[46.1 µM] | -2%
COc1cc(CN2CCN(C(=O)CC(C)C)CC2)cc(OC)c1OC | 11% | 7% | 7% | -1% | 7% | -1.2% | 17% | ?
C/C(=N\NC(=O)c1nnn(-c2nonc2N)c1C)c1ccc(-c2ccccc2)cc1 | -4% | 0% | 0% | . | 1%[46.1 µM] | . | 14%[46.1 µM] | 2%
COc1ccc(C(C(=O)NCC2CCCO2)N(Cc2ccco2)C(=O)c2snc(C(N)=O)c2N)cc1OC (stereo not drawn) | -3% | 10% | 1% | . | -14%[46.1 µM] | . | 2%[46.1 µM] | -3%
CN(Cc1ccccc1)CC(O)COc1ccc(CNCc2ccc(Cl)s2)cc1 (stereo not drawn) | -14% | 0% | -16% | . | ? | . | 2.5µM* | 5%
CCOC(=O)NC1CCS(=O)(=O)C1 (stereo not drawn) | -13% | 8% | -1% | 7% | 0% | 0.2% | 1% | 4%
O=C(Nc1nc2ccccc2[nH]1)c1ccccc1 | -26% | -16% | ? | -8% | ? | -2.9% | ? | -55%
O=C(CSc1n[nH]c(-c2ccccn2)n1)Nc1ccccc1 | -12% | 1% | 19% | . | ? | . | ? | 8%
CCOC(=O)c1c(Nc2ccc(OC)cc2)nnc(-c2ccccc2)c1-c1ccccc1 | ? | . | . | -14% | ? | -3.5% | -2%[46.1 µM] | .
O=C1c2ccccc2-c2ncnc3c(N4CCOCC4)cc(N4CCOCC4)c1c23 | -19% | -29% | -8% | ? | 3% | -5.9% | -30% | -80%
Cc1ccc2c(c1)N(C(=O)CCC(=O)NCc1cccs1)CCO2 | -3% | . | . | -1% | -5%[46.1 µM] | -0.8% | -5%[46.1 µM] | .
O=C(Nc1ccc2c(c1)OCCO2)c1cccc(S(=O)(=O)N2CCCCC2)c1 | -8% | -6% | -2% | -4% | -37%[14.3 µM] | -2.7% | 9% | 13%
Cc1nnc(Oc2ccccc2F)c2ccccc12 | 63%[activator] | ? | 3% | -3% | 7% | 2.5% | 21% | -12%
Cc1ccc(N2C(=O)CS(=O)(=O)C23C(=O)N(Cc2ccccc2F)c2ccccc23)cc1Cl (stereo not drawn) | 0% | . | . | 1.3µM* | ? | -4.6% | ? | .
CCn1c(SCC(=O)Nc2cc(C)on2)nc2c(c1=O)SC(C)C2 (stereo not drawn) | . | -4% | 4% | 4% | 9% | 2.6% | 19% | -5%
Cc1cc(NC(=O)NC2CC(=O)N(c3ccc4c(c3)OCCO4)C2)no1 (stereo not drawn) | 15% | 1% | 18% | . | 12%[46.1 µM] | . | 0%[46.1 µM] | .
CCc1ccc(CNC(=O)c2ccc(NC(=O)C3=CSCCO3)cc2)cc1 | 0% | -4% | 7% | . | . | . | . | 0%
CCn1nnnc1SCC(=O)Nc1ccc2c(c1)OCO2 | 44%[activator] | 0% | 1% | -9% | -2% | 0.3% | -9%[46.1 µM] | 1%
Cc1ccc(C)c(NC(=O)c2cc(S(=O)(=O)N3CCOCC3)cn2C)c1 | -1% | -7% | 21% | . | . | . | . | 1%
CCOc1cc(CNC(=O)c2ccc(Cn3c(=O)c4cccn4c4cccnc43)cc2)ccc1OC | -13% | . | . | 11% | -7%[46.1 µM] | -1.6% | . | .
C=CCn1c[n+](CC(=O)c2ccc(Br)s2)c2ccccc21 | -11% | 0% | 4% | . | 17%[46.1 µM] | . | 2%[46.1 µM] | 4%
CCOc1ccc(C(=O)NCCS(=O)(=O)N2CCN(c3cccc(Cl)c3)CC2)cc1 | 0% | . | . | -2% | -23%[46.1 µM] | -2.4% | . | .

# Brought forward from above: three entries, then new ones.
mol | StopGo reporter | SARS PLP yeast | RE007 growth inh | Cruzain noTriton | LASV entry inh | Cruzain inh Det | Marburg entry inh | NS1 function inh
CCOc1cc(CNC(=O)c2ccc(Cn3c(=O)c4cccn4c4cccnc43)cc2)ccc1OC | -13% | . | . | 11% | -7%[46.1 µM] | -1.6% | . | .
C=CCn1c[n+](CC(=O)c2ccc(Br)s2)c2ccccc21 | -11% | 0% | 4% | . | 17%[46.1 µM] | . | 2%[46.1 µM] | 4%
CCOc1ccc(C(=O)NCCS(=O)(=O)N2CCN(c3cccc(Cl)c3)CC2)cc1 | 0% | . | . | -2% | -23%[46.1 µM] | -2.4% | . | .
Cc1ccc(NC(=O)/C(=C/c2ccco2)c2ccccc2)c(C)c1 | 0% | 3% | -4% | -7% | -24% | -1.0% | -25% | -13%
CSc1ccc(S(=O)(=O)N2CCC(C(=O)NCC3CCCO3)CC2)cc1 (stereo not drawn) | 5% | 1% | -15% | . | . | . | 1%[46.1 µM] | -3%
COc1ccccc1OCC(=O)Nc1ccc2c(c1)OCO2 | 7% | -7% | -16% | . | -23% | . | 1%[46.1 µM] | 0%
CCOC(=O)C1=C(N)Oc2ccc3ccccc3c2C1c1ccc(O)cc1 (stereo not drawn) | -24% | -16% | 12% | . | . | . | . | 13%
COc1ccc(C)cc1NS(=O)(=O)c1cnc(N)nc1 | -10% | . | . | 4% | -8%[46.1 µM] | 0.6% | . | .
CN1/C(=C\C(=O)c2cccnc2Cl)C(C)(C)c2ccccc21 | 2% | -9% | 13% | -14% | 20% | -4.4% | 44% | -21%
CCCN(C(=O)CCSc1ccc(F)cc1)c1c(N)n(Cc2ccccc2)c(=O)[nH]c1=O | -24% | -2% | 13% | . | -17% | . | 20% | -1%
COC(=O)c1cc(-c2ccc(Br)cc2)c2c(=O)[nH]c(=O)n(C)c2n1 | -23% | 12% | 18% | . | . | . | . | 5%
CS(=O)(=O)c1ccc2nc(NC(=O)c3ccc(N4C(=O)CCC4=O)cc3)sc2c1 | 6% | -1% | 94% | . | 5% | . | 4%[46.1 µM] | 0%
COc1cc(/C=N/NC(=O)c2c(C)nc3ccc(Cl)cn23)cc(OC)c1OC | -5% | -3% | -11% | . | -9%[46.1 µM] | . | 4.5µM* | 5%
CCOC(=O)N1CCN(C(=O)CNC(=O)C23CC4CC(CC(C4)C2)C3)CC1 | -13% | 1% | 5% | . | 27% | . | 14% | -2%
O=C(Nc1ccc(F)cc1)C1CCN(S(=O)(=O)c2ccc3[nH]c(=O)oc3c2)CC1 | 4% | -1% | 7% | . | . | . | . | 4%
CC(=O)N1c2ccc(S(=O)(=O)NCC3CCC(C(=O)Nc4cccc(C)c4)CC3)cc2CC1C (stereo not drawn) | -17% | . | . | ? | -13%[46.1 µM] | 0.6% | . | .
O=C(CSc1nnc(-c2ccc(O)cc2)o1)Nc1ccccc1 | 34%[activator] | 4% | 2% | . | ? | . | ? | -6%
CCOC(=O)C1CCN(c2ccc([N+](=O)[O-])cc2S(=O)(=O)N2CCOCC2)CC1 | -15% | -2% | 1% | . | 1%[46.1 µM] | . | -9%[46.1 µM] | -14%
Cc1cccc(-c2nc3ccccc3c(=O)n2NC(=O)c2cccnc2Cl)c1 | -19% | 17% | 2% | -8% | 1% | 0.0% | 19% | -1%
COc1cccc(-c2nn(-c3ccccc3)cc2CNC(C)Cn2cncn2)c1 (stereo not drawn) | 29% | 0% | 3% | . | -28% | . | ? | -8%
CN(C)C(=O)N1CCC(C(=O)NCc2cccs2)CC1 | . | 3% | 0% | 0% | 11% | -3.2% | 12% | 3%
O=S(=O)(NCc1ccc(C(F)(F)F)cc1)c1ccc(-n2cnnn2)cc1 | -9% | -4% | -6% | . | . | . | . | 12%
C[C@H](NC(=O)c1ccccc1Cl)C(=O)NCCc1ccc(S(N)(=O)=O)cc1 | -1% | 2% | 20% | . | 3% | . | -11%[46.1 µM] | -5%
Cc1cc([N+](=O)[O-])nn1Cc1ccc(F)cc1 | -18% | 0% | 1% | . | -13% | . | -4%[46.1 µM] | .
CC(C)(C)C(=O)NC(NC(=S)Nc1ccc(S(N)(=O)=O)cc1)C(Cl)(Cl)Cl (stereo not drawn) | -14% | -10% | -8% | -2% | 3% | -2.0% | 10% | -3%
O=C(C1=C(O)C(=O)N(CCc2ccccc2)C1c1ccncc1)c1cc2ccccc2o1 (stereo not drawn) | -19% | 0% | 12% | . | 11% | . | ? | -2%
Cc1nc(-c2cc(-c3ccc(Cl)cc3)no2)cs1 | 9% | -2% | 1% | . | . | . | . | 0%
Cc1c(NC(=O)c2ccccc2)c(=O)n(-c2ccccc2)n1C | ? | 9% | 5% | 6% | -7% | -0.9% | 2% | 3%
S=c1[nH]nc(Cc2cccs2)n1-c1cccc2ccccc12 | -5% | 30% | . | -3% | 0% | -5.4% | 16% | -5%
